TRPML1 blocker: inhibitors of human TRPML1 channel; TRPML1-inducible cells, Ca2+ dye fluorescence, FDSS; stronger effect = lower value; inhibition of EC80 agonist-evoked calcium signal; Q9GZU1; AID 624415; 390,000 compounds, 0.02% hits; activity change, negative = inhibition, % (concentration not given with the values); in the data active means activity change below about -50%; inconclusive means about -30% to -50%; inactive means above about -30%;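 further: stimulus is agonist 54-4 at its EC80 concentration; on the % scale 0 is the no-effect control and ±100 the full control effect; the text of the record puts the active cut at -80%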
Target sequence (Q9GZU1 whole entry, looked up): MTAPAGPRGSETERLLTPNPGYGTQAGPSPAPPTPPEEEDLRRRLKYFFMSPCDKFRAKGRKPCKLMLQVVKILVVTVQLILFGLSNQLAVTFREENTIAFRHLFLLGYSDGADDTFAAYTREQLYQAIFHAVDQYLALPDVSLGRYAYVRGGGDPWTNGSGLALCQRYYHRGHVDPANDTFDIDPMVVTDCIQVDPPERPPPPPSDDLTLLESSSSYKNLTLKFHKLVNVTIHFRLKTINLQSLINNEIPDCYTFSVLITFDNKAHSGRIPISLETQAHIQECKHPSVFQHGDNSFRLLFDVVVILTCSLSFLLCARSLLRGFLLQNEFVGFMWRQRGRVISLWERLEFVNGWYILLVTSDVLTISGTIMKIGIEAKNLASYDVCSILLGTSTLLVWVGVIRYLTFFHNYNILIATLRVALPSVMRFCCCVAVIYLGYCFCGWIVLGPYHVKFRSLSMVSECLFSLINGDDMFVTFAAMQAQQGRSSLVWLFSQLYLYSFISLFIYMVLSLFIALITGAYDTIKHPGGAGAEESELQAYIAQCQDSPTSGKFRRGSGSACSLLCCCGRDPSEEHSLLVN
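Calcium fluorescence in TRPML1-DL cells induced overnight with Tet: a 110 s read after compound pin addition, then a 110 s antagonist read after challenge with 54-4 at 4 uM final (EC80).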
Menin MLL FP FL: displaces fluorescein MLL peptide from human menin; AID 1766; 290,000 tested, under 10 active; Fluorescence polarization, fluorescein-MLL peptide displacement from menin; FP activity change, % at 61.4 µM; inconclusive = falling polarisation curve, or a change in total fluorescence; inactive = total fluorescence flat and polarisation flat or rising; no compound was filed as active; the % refers to the polarisation; negative = inhibition;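 further: % of control where 0% means no effect; inhibitors lower the polarisation; unlabelled MLL peptide was the positive control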
gsp antagonist: antagonizes gsp, the McCune-Albright syndrome mutation | gsp-mutant cells, cAMP HTRF, 30 min; control for the full effect not named in the record | Potency, µM (titrated, usually from 76.9 µM), for inactives: at the highest dose activity change, negative = inhibition, hits mostly inhibitors | 340,000 compounds, 0.4% hits | AID 624288; active = falling curve of any shape with a large fitted effect; inconclusive = falling curve, mostly with a smaller effect; inactive = flat or rising curve; cell line not stated here;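 further: intracellular cAMP measured with PDE inhibitor Ro 20-1724 present during compound exposure; potency means the concentration at half of the fitted maximal effect; on the % scale 0 is the no-effect control and ±100 the full control effect; nearly all actives have a fitted effect of over 65% in size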
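Measurement of cellular cAMP by homogeneous time-resolved fluorescence following a 30 min compound exposure at 37C. The PDE inhibitor […] was present throughout; the assay buffer was DPBS with 0.05% BSA and 0.005% Tween 20.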
ClpP mod: qHTS Assay for Activators of ClpP. AID 651965, 2013. purified B. subtilis ClpP, FRET peptide cleavage, 20 min. Potency, µM (top dose mostly 57.5 µM), inactives show at the top dose activity change, negative = active. 340,000 compounds, 1.9% hits; active = well fitted falling curve with a large enough effect; inconclusive = small, poorly fitted or top-dose-only effect; inactive = no such curve, though single readings can be large or run the other way; further: potency means the concentration at half of the fitted maximal effect; the source files actives as falling curves though it sought activators and does not explain the sign; nearly all actives have a fitted effect of over 65% in size; many hits overshoot -100%
Target sequence (P80244 whole entry, looked up): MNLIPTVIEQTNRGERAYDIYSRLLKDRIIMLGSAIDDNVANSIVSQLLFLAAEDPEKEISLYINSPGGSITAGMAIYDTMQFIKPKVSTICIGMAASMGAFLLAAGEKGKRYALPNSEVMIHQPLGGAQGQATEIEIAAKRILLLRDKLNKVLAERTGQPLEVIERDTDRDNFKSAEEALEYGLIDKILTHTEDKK
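ClpP 10 microg/mL final, pH 8 Tris/KCl buffer with BSA, glycerol, Tween-20; compound pinned in; FRET-FV substrate; RT 20 min; Ex320/Em430; ΔFRET vs ADEP 5.8 microM, DMSO, no enzyme.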
TRPML1 agonist: activates the human TRPML1 channel. TRPML1-expressing cells, Ca2+ dye fluorescence, FDSS; host cell line not named in the record; reference of the full effect not given here. activation, % (test concentration not listed). AID 624414. 410,000 compounds, 0.12% hits. Q9GZU1; in the data active = activation above about 50%; inconclusive = about 30% to 50%; inactive = below about 30%; further: 0% is about no effect; the text of the record puts the active cut at 80%
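In this qHTS format, compounds were pin-transferred onto Ca8-dye-loaded TRPML1-DL cells induced with Tet overnight, and intracellular Ca2+ fluorescence was recorded kinetically for 110 s after a 10 s baseline. A subsequent 4uM final 54-4 (EC80) addition followed by a second 110 s read served as the antagonist phase.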
gsp ag: agonists of gsp mutant (McCune-Albright syndrome). gsp mutant cells, cAMP HTRF, 30 min; control for the full effect not named in the record. Potency, µM (highest dose often 76.9 µM), without a hit: at the highest dose activation (cAMP increase), usual class: activators. 340,000 compounds, 0.13% hits; active = well fitted activation curve with a large enough effect; inconclusive = small, poorly fitted or top-dose-only effect, or another doubt; inactive = no such curve, though single readings can be large or run the other way; cell line not stated here;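 further: phosphodiesterase inhibitor Ro 20-1724 added with compounds to block cAMP breakdown; potency means the concentration at half of the fitted maximal effect; nearly all actives have a fitted effect of over 60% in size; about a fifth of the inactives were tested at one dose only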
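Cells in DMEM/10% FBS with G418 were pretreated with compounds in DMSO plus […] (300 uM stock) for 30 min at 37C. cAMP was measured by HTRF (cAMP-d2 plus anti-cAMP antibody-K) after 30 min at room temperature.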
An asterisk follows results filed as active; u = inconclusive; x = not tested or not shown; [ ] = another dose, or the depositor's remark.

SMILES	TRPML1 blocker	Menin MLL FP FL	gsp antagonist	ClpP mod	TRPML1 agonist	gsp ag
CCCCS(=O)(=O)NC1=NCN(CCO)CN1	6.9	-1.1	12.5%	1.8%	-0.7	18.4%
O=C(CCC1CCN(C(=O)c2cccc(Cl)c2F)CC1)Nc1ccccc1	-7.6	x	-6.4%	-7.7%	1.1	u
N/C(=N\OC(=O)COc1ccc([N+](=O)[O-])cc1)c1ccncc1	2.0	-2.6	6.7%	x	2.1	1.5%[15.4 µM]
CCOc1ccc(S(=O)(=O)N2CCOCC2)cc1NC(=O)c1ccccc1F	4.1	x	-6.8%	-3.2%	-0.1	3.1%[15.4 µM]
O=C(Cc1ccc(Cl)cc1)N/N=C/c1ccccc1	-2.2	1.6	6.5%	-0.1%	-1.3	5.8%
Cc1noc(C)c1S(=O)(=O)N(CC(=O)Nc1ccc2c(c1)OCCO2)c1ccc(C(C)C)cc1	-1.6	1.0	-11.8%	-1.1%	1.0	27.2%
CC1CCN(S(=O)(=O)c2ccc(C(=O)Nc3sc4c(c3C(N)=O)CC(C)(C)NC4(C)C)cc2)CC1	33.9	x	x	2.0%	1.7	x
COc1ccc([C@@H]2CC=C(C(=O)O)[C@H](c3ccc(Br)cc3)N2S(=O)(=O)c2ccccc2C)cc1	29.6	x	-19.7%	0.9%	0.8	x
CCOC(=O)N1CCN(C(c2ccccc2)c2sc3nc(C)nn3c2O)CC1 (stereo not drawn)	-6.0	2.5	-1.0%	0.8%	0.2	-34.3%[inhibitor]
COc1ccc(C(=O)NCc2ccc3c(c2)CCN3C(=O)c2ccc(Cl)cc2)c(OC)c1	-10.9	x	x	0.6%	2.1	x
COCCNC(=O)CCCn1c(=O)c2cc(OC)c(OC)cc2n(CC(=O)NCCC2=CCCCC2)c1=O	-2.5	2.6	-16.2%	x	-0.2	0.6%[15.4 µM]
COC(=O)c1ccccc1NC(=O)c1ccc(-c2nc(COc3ccccc3)c(C)o2)cc1	22.3	x	x	-7.2%	-0.5	x
CCc1ccc(CNC(=O)C2CCC(=O)N(CCc3ccc(Cl)cc3)C2)nc1 (stereo not drawn)	-14.5	x	0.1%	-2.4%	0.0	3.7%
Cc1ccc(-c2nnc(NC3CCCCC3)c3ccccc23)cc1S(=O)(=O)N1CCN(C)CC1	15.2	3.3	-19.2%	-1.1%	-0.4	3.4%
CC(C(=O)NCC1CCCO1)c1ccc([N+](=O)[O-])cc1 (stereo not drawn)	-0.3	0.3	6.0%	x	-0.1	-20.5%
CC(OC(=O)C12CC3CC(CC(O)(C3)C1)C2)C(N)=O (stereo not drawn)	4.2	1.7	19.4%	x	-0.2	-0.3%[15.4 µM]
COCCn1cnc2c1c(=O)n(Cc1c(F)cccc1Cl)c(=O)n2Cc1ccccc1	32.3	2.3	14.4%	x	0.9	-14.4%
COC(=O)C1=C(Nc2ccccc2NC(=O)CCCC(=O)O)CSC1	0.1	-5.7	5.7%	x	0.1	u
COc1ccc(-c2ccc3c(c2)C2CC3CCN2C(=O)C(C)(C)C)cc1 (stereo not drawn)	78.1	x	-14.8%	1.7%	2.4	x
CCN(CC(=O)Nc1ccc2c(c1)OCCO2)Cc1cc(=O)n2ccsc2n1	8.6	5.3	16.3%	x	-0.2	-0.1%[15.4 µM]
CCNC(=O)CC1SC(=Nc2ccc(C)cc2)N(CC)C1=O (stereo not drawn)	8.0	6.6	10.2%	-1.9%	-0.3	-14.6%
O=C(CO/N=C/c1cccc([N+](=O)[O-])c1)NC1CCCCC1	-3.9	2.1	-20.4%	-0.3%	-0.8	-9.0%[15.4 µM]
c1ccc2c(c1)Oc1ccccc1S2	-13.3	x	2.4%	-1.0%	0.2	x
Cc1cc2c(cc(C(=O)N3CCC(C(=O)N4CCCC4)CC3)n2Cc2c(F)cccc2Cl)o1	34.4	-0.9	-11.1%	0.3%	0.9	-49.9%[inhibitor]
COc1ccc(OC)c(CCNC(=O)CN2C(=O)CCSc3ccccc32)c1	-2.1	1.2	9.1%	x	1.2	8.0%
Nc1ncc2[nH]c(N)nc2n1	-3.9	x	2.0%	x	0.4	27.6%
O=C(N/N=C/c1ccccc1F)c1ccccc1OCc1ccccc1	17.8	1.2	-23.9%	x	2.9	u
O=C(O)c1ccc(N2CC3CC(C2)c2cccc(=O)n2C3)c(NS(=O)(=O)c2cccc(C(F)(F)F)c2)c1 (stereo not drawn)	-5.5	3.0	1.1%	x	-0.2	-2.9%
CCN1C(=O)c2cccc3c(S(=O)(=O)NCCCN4CCOCC4)ccc1c23	1.3	-4.2	9.5%	u	-0.7	23.0%
CC(=O)c1cccc(NC(=O)CSc2nnc(-c3ccncc3)o2)c1	0.0	x	-0.4%	2.0%	-0.5	8.1%
C=CCOC(=O)C1=C[C@@H](c2coc3ccccc3c2=O)C[C@@H](OCCCCO)O1	0.9	x	-8.9%	21.5%	0.7	u
C=C[C@H]1C(C(=O)OCC)=CC[C@@H](c2ccccc2)N1S(=O)(=O)c1ccc(C)cc1	80.3	x	x	-0.6%	2.6	x
CCN1CCN(C(=O)C(=O)c2cn(CC(=O)N3CCCCCC3)c3ccccc23)CC1	34.0	x	10.0%	-1.0%	0.3	0.8%[15.4 µM]
CCC(NS(=O)(=O)c1ccc(C)cc1)C(=O)N1CCOCCOCCOCCOCC1 (stereo not drawn)	13.2	-5.1	x	x	-0.2	-0.9%[15.4 µM]
O=C(c1ccco1)N1N=C(c2ccc(Cl)cc2)CC1(O)C(F)(F)F (stereo not drawn)	-12.1	-0.1	-7.5%	x	0.1	22.1%
CCOC(=O)N1CCC(NC(=O)c2cnn(-c3ccc(F)cc3F)c2C2CCN(C(=O)OC(C)(C)C)CC2)CC1	-19.1	x	x	-0.4%	-0.1	x
C=CCN1C(=O)C(CC(=O)NCC)SC1=Nc1ccccc1OC (stereo not drawn)	1.1	-1.3	0.0%	0.2%	0.1	-21.3%
Clc1ccc(-n2nnc(-c3ncc[nH]3)n2)cc1Cl	-20.2	x	1.1%	-2.5%	-0.6	x
Cc1ccc(C(=O)CC2(O)C(=O)N(C)c3ccccc32)o1 (stereo not drawn)	-8.5	3.7	0.0%	-1.4%	-0.4	-19.9%
O=[N+]([O-])c1cccc(S(=O)(=O)Nc2ccc(Cc3ccncc3)cc2)c1	11.2	2.0	-12.8%	-1.2%	0.3	-3.0%
O=S1(=O)CC(N2CCN(CCO)CC2)CN1Cc1cn(Cc2ccccc2C(F)(F)F)nn1 (stereo not drawn)	-10.4	x	x	1.1%	-0.1	x
O=C(CSc1ncnc2sccc12)Nc1ccccc1F	11.3	-1.1	2.4%	-0.7%	-0.9	-1.7%[15.4 µM]
O=c1c2c3c(sc2nc2n1CCC2)CCC3	-1.4	3.9	1.4%	-1.5%	0.3	0.5%
O=C(COC(=O)CNC(=O)c1ccc2c(c1)OCO2)Nc1ncc(Cl)cc1Cl	-3.5	-2.4	-2.6%	-5.9%	0.0	-24.4%
Cc1c(C(=O)Nc2nnc(C3CC3)s2)oc2ccccc12	-11.4	x	-6.8%	-5.0%	0.6	4.1%
COCCCn1c(SCC(=O)NC2CCCCC2)nc2ccccc2c1=O	7.8	0.8	x	x	1.2	5.7%[15.4 µM]
CC(C)=C[C@H]1C[C@H](C)[C@H]2CC[C@H](C)c3c(O[C@@H]4OC[C@@H](O)[C@H](O)C4O)c(O)c(C)c1c32 (stereo partly drawn)	0.3	x	9.5%	-5.3%	0.1	x
COc1ccc(CNC(=O)c2noc3c2CCCCC3)cc1	-11.3	1.2	-2.6%	-0.9%	0.7	8.5%
O=C(O)c1ccccc1SCCS(=O)(=O)c1ccc(Cl)cc1Cl	-7.5	-0.3	-17.5%	-1.1%	1.7	8.0%
COC(=O)C1=C(CN2CCSCC2)NC(=O)NC1c1cc(C)ccc1C (stereo not drawn)	-9.2	-1.6	-5.8%	-0.9%	-0.2	14.6%
COc1cc(/C=N/NC(N)=O)ccc1OCC(=O)N1C(C)CCCC1C (stereo not drawn)	45.8	-0.1	x	x	0.5	11.9%[15.4 µM]
N#Cc1cc(-c2ccccc2)cnc1Sc1ccc(Cl)cc1	-7.8	7.2	-2.9%	u	-1.1	22.9%
COc1ccc(Cn2c(C3CCCCC3)nc3c(c(=O)c4ccccc4n3C)c2=O)cc1	-5.9	2.1	-15.6%	-0.4%	1.1	u
COc1cc(CNc2ccc(N3CCOCC3)cc2)cc(Br)c1OC	45.4	-0.6	-19.2%	-1.8%	-1.4	-14.8%
Nc1ccc2c(c1)C(=O)c1ccc(N)cc1-2	-11.8	x	u	x	1.4	u
C=CCNC(=O)CN1C(=O)C2C3c4ccccc4C(c4ccccc43)C2C1=O (stereo not drawn)	-5.1	1.7	-0.3%	x	0.1	13.9%
O=C(/C=C/c1ccccc1Cl)N1CCCN(C(=O)/C=C/c2ccccc2Cl)CC1	8.0	5.2	u	1.1%	-0.4	-7.2%[15.4 µM]
CCOc1cc(NC(=S)Nc2ccccc2)c(OCC)cc1NC(=O)c1ccc(OC)cc1	15.0	12.9	-11.6%	-8.9%	-0.7	0.5%
COc1ccc(C(C)=O)c(OCC(=O)NCCC2=CCCCC2)c1	-10.6	x	x	-0.4%	0.1	-34.5%
CN(CC(=O)Nc1c(Cl)cccc1Cl)C(=O)Cc1ccsc1	-6.2	x	-3.0%	-0.7%	0.3	-1.6%[15.4 µM]
Remaining list, next part.
SMILES	TRPML1 blocker	Menin MLL FP FL	gsp antagonist	ClpP mod	TRPML1 agonist	gsp ag
Cc1cc(-c2n[nH]c(=S)n2/N=C/c2ccc(C)o2)n[nH]1	17.6	2.6	-11.8%	x	1.6	-16.9%[15.4 µM]
O=C(CN1CCN(S(=O)(=O)c2ccccc2)CC1)Nc1ccc(Cl)cn1	-6.1	-0.2	-4.2%	0.1%	0.4	u
O=C(CCNC(=O)c1ccco1)Nc1ccc(SC(F)F)cc1	-14.9	1.1	-1.2%	x	-0.4	8.8%
O=C(NNC(=O)C1CC=CCC1C(=O)O)c1cccs1 (stereo not drawn)	-6.9	-0.7	20.2%	x	0.3	-9.5%[15.4 µM]
COC(=O)C1CCCN1C(C(=O)NC1CCCCC1)c1ccc(Cl)cc1 (stereo not drawn)	-8.3	-0.7	-7.0%	0.1%	-0.2	21.5%
CC(C)n1c(Nn2cnnc2)nc2ccccc21	15.3	-0.1	8.9%	-2.7%	0.0	0.0%
O=C(c1ccc(Cl)cc1)N1CCN(CCc2ccncc2)CC1	6.8	x	x	0.4%	-0.7	x
Cc1cc(Oc2nc3ccccn3c(=O)c2/C=C(\C#N)C(=O)NC2CCS(=O)(=O)C2)ccc1Cl (stereo not drawn)	10.5	-0.2	-4.6%	x	1.2	-4.1%
CCCCCCc1cc2cc(C(=O)OCC)c(=O)oc2cc1O	5.6	2.6	3.8%	-22.6%	1.4	-2.5%
COc1cc(Br)cc(/C=N/N(CCO)C2=NS(=O)(=O)c3ccccc32)c1OC	26.4	-2.1	u	x	-0.1	0.6%[15.4 µM]

Screens from PubChem BioAssay.
